Arbovirus inh = blocks arbovirus infection; arbovirus infection cell-based antiviral screen; inhibition, % at 10 µM; 200,000 compounds, 0.37% hits; AID 1251;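 active means inhibition from about 30%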;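 further: bluetongue infection of BSR cells; cell survival read as ATP light after 72 h; 0% = infected wells without compound and 100% = uninfected wells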
RecA intein inh = blocks M. tuberculosis RecA intein splicing. cell-free RecA intein splicing, fluorescence. inhibition, %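 (about 9 µM by stock and volumes)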. 290,000 compounds, 0.75% hits. AID 2221; in the data active means inhibition above about 30%;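 further: 0% = vehicle wells and 100% = reference inhibitor control wells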
Target sequence (P9WHJ3 whole entry, looked up): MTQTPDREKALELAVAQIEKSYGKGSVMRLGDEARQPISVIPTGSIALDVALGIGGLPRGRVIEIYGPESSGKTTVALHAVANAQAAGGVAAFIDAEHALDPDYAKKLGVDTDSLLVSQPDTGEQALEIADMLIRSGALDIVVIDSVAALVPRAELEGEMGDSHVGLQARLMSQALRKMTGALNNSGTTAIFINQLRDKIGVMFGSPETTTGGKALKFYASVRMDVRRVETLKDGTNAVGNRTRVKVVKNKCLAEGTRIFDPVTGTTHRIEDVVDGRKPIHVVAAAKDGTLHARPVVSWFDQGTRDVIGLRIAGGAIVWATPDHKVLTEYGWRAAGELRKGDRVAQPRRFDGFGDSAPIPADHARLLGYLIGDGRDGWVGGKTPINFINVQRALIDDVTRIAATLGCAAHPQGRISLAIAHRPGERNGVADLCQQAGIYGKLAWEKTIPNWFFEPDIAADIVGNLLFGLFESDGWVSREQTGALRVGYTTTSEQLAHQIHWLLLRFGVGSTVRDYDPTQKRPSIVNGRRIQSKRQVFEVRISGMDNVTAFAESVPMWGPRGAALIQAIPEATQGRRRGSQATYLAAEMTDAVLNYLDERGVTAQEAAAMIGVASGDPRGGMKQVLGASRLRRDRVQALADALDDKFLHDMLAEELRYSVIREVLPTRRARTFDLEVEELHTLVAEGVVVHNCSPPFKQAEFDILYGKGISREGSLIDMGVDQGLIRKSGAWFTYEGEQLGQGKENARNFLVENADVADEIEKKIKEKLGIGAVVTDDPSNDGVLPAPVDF
YopH PTP inh = YopH (Yersinia) phosphatase inhibition; fluorescence Ex485/Em525; inhibition, %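 (about 10 µM by stock and volumes)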; 140,000 compounds, 0.16% hits;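 active means inhibition of 50% or more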;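 further: controls were vehicle for no effect and minimum signal wells for full effect; inactives centre near -20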
Mtb bLac sens = beta-lactam sensitization of Mtb H37Rv; M. tuberculosis H37Rv growth with meropenem, percent inhibition; hits of this screen are not shown here; inhibition, % at 25 µM; 330,000 compounds, 0.27% hits;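 active means about 74% or more and at least 40 points above the plate without the antibiotic, then above 30% in a dose series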;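 further: growth measured after seven days incubation then overnight dye step; 0% = bacteria only wells and 100% = bacteria with antibiotic; twin plates without the antibiotic show which effects depend on it; some results filed as inactive read as strong as hits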
Mtb growth = M. tuberculosis H37Rv growth inhibitors, H37Rv strain (AID 1626); inhibition, % at 10 µM, or IC50 in µM where a hit was titrated; M. tuberculosis H37Rv growth inhibition; higher % means a stronger effect; 220,000 compounds, 0.95% hits;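 active means confirmed in a dose series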;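 further: bacteria incubated seven days before Alamar blue readout; 0% = bacteria only wells and 100% = bacteria with antibiotic wells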
Arbovirus inh repeat = also measured in Arbovirus inh; calls as there; inhibition, %; measured here: 10K subset replicate screen; many hits read low in the repeat;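 first of two repeat runs on a subset; 0% = infected and 100% = uninfected wells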
Starred values were filed as active, the others as inactive; · = not tested or not shown.

SMILES	Arbovirus inh	RecA intein inh	YopH PTP inh	Mtb bLac sens	Mtb growth	others
COc1ccccc1CC(=O)Nc1cccc(C(=O)Nc2nccs2)c1	·	-0.7	·	4	15%
COc1cc(S(=O)(=O)N2CCC(C(N)=O)CC2)c(C)cc1C	0	5.8	1	-3	-4%
NNC(=O)c1ccc(Oc2cc(Cl)cc(Cl)c2)o1	·	1.4	·	7	5%
Cc1ccc(C(=O)N2CCN(c3ccc(NC(=O)Cc4ccccc4)cc3)CC2)cc1	·	0.3	·	60	·
CC1=CC(C)(C)Nc2ccc(Cc3ccc4c(c3)C(C)=CC(C)(C)N4)cc21	·	14	·	-12	3%
CSc1ncc(C(=O)Nc2cccc(C)c2C)c(C)n1	·	0.8	·	98	·
COc1ccc(NC(=O)C2C3C=CC(C3)C2C(=O)O)cc1 (stereo not given)	·	6.8	·	19	1%
CC1=Nc2cc(C(=O)NCCCN3CCN(C)CC3)ccc2Sc2ccc(C)cc21	·	0.4	·	-2	·
CCN(CC)S(=O)(=O)c1ccc(N(C)C)c(NC(=O)C2CCCC2)c1	·	1.6	·	-9	-13%
CCOC(=O)C1=C(COC(=O)c2cccc(NC(C)=O)c2)NC(=O)NC1C (stereo not given)	·	1.8	·	0	·
CC(C)C[C@H](NC(=O)N1CCCCCC1)C(=O)O	·	-1.4	·	-1	-2%
COc1ccc(S(=O)(=O)N2CCN(C(=O)NC3CCCCC3)CC2)cc1OC	-3	-10.0	-4	-2	6%

Sorted by length of the SMILES (falling): some entries from above
SMILES	Arbovirus inh	RecA intein inh	YopH PTP inh	Mtb bLac sens	Mtb growth	others
CC1=CC(C)(C)Nc2ccc(Cc3ccc4c(c3)C(C)=CC(C)(C)N4)cc21	·	14	·	-12	3%
CC(C)C[C@H](NC(=O)N1CCCCCC1)C(=O)O	·	-1.4	·	-1	-2%
CSc1ncc(C(=O)Nc2cccc(C)c2C)c(C)n1	·	0.8	·	98	·

6 neighbouring compounds already listed, for reference:
SMILES	Arbovirus inh	RecA intein inh	YopH PTP inh	Mtb bLac sens	Mtb growth	others
NNC(=O)c1ccc(Oc2cc(Cl)cc(Cl)c2)o1	·	1.4	·	7	5%
Cc1ccc(C(=O)N2CCN(c3ccc(NC(=O)Cc4ccccc4)cc3)CC2)cc1	·	0.3	·	60	·
CC1=CC(C)(C)Nc2ccc(Cc3ccc4c(c3)C(C)=CC(C)(C)N4)cc21	·	14	·	-12	3%
CSc1ncc(C(=O)Nc2cccc(C)c2C)c(C)n1	·	0.8	·	98	·
COc1ccc(NC(=O)C2C3C=CC(C3)C2C(=O)O)cc1 (stereo not given)	·	6.8	·	19	1%
CC1=Nc2cc(C(=O)NCCCN3CCN(C)CC3)ccc2Sc2ccc(C)cc21	·	0.4	·	-2	·

More records follow.
SMILES	Arbovirus inh	RecA intein inh	YopH PTP inh	Mtb bLac sens	Mtb growth	others
CN(C(=S)NC(=O)CCCOc1ccc(Cl)cc1Cl)c1ccccc1	-6	12	3	9	-1%
CC(C)(C)NC(=O)CN(C(=O)C(=O)Nc1ccc2c(c1)OCCO2)C1CCCC1	·	-1.2	·	3	·
CC(C)NC(=S)N/N=C1\CCCCC1C1CCCCC1 (stereo not given)	14	10	-5	11	-9%
Cc1nnsc1-c1nnc(SCC(=O)c2ccc(F)cc2)n1C1CC1	·	-2.5	·	-5	-5%
COc1cc(-c2nc3c4ccccc4nc(=S)n3[nH]2)cc(OC)c1OC	·	0.1	·	-8	·
O=C(O)C1(P(=O)(c2ccc(Cl)cc2)c2ccc(Cl)cc2)CC1	0	-5.7	·	-1	1%
COc1ccc(C(=O)OCC(=O)NCCCc2ccccc2)c(OC)c1	·	0.3	·	-2	·
Cc1csc(NC(=O)c2cn3ccccc3n2)n1	-7	4.7	·	96	39%
CC(=O)NS(=O)(=O)c1ccc(N=c2ssc3c2-c2cc(C)c(C)cc2NC3(C)C)cc1	-22	-4.3	-21	11	73%
CN(C)C(CNC(=O)CNC(=O)c1ccc2ccccc2c1)c1ccccc1 (stereo not given)	·	0.9	·	-3	·
C=CCOc1ccc(CNc2ccc3[nH]c(=O)[nH]c3c2)cc1	4	-1.4	·	-7	11%
C/C(=N\NC(=O)CSCc1ccc([N+](=O)[O-])cc1)c1ccccc1O	-2	4.5	-4	2	2%

Fetched by structure from above, 5 records:
SMILES	Arbovirus inh	RecA intein inh	YopH PTP inh	Mtb bLac sens	Mtb growth	others
CC(C)(C)NC(=O)CN(C(=O)C(=O)Nc1ccc2c(c1)OCCO2)C1CCCC1	·	-1.2	·	3	·
CC(=O)NS(=O)(=O)c1ccc(N=c2ssc3c2-c2cc(C)c(C)cc2NC3(C)C)cc1	-22	-4.3	-21	11	73%
COc1ccc(C(=O)OCC(=O)NCCCc2ccccc2)c(OC)c1	·	0.3	·	-2	·
Cc1nnsc1-c1nnc(SCC(=O)c2ccc(F)cc2)n1C1CC1	·	-2.5	·	-5	-5%
C=CCOc1ccc(CNc2ccc3[nH]c(=O)[nH]c3c2)cc1	4	-1.4	·	-7	11%

Next records.
SMILES	Arbovirus inh	RecA intein inh	YopH PTP inh	Mtb bLac sens	Mtb growth	others
Cc1ccc(-c2nc3ccccc3c(=O)n2N)cc1	·	-0.3	·	6	·
COc1c(C(=O)Nc2c(C)n(C)n(-c3ccccc3)c2=O)ccc2ccccc12	11	-1.8	-33	0	-4%	Arbovirus inh repeat=3
O=C(COC(=O)c1ccc(Cl)nc1)NC(=O)c1ccc(OC(F)F)cc1	·	-1.4	·	2	·
CC(C(=O)N1CCN(C(=O)c2ccco2)CC1)n1sc2ccccc2c1=O (stereo not given)	·	-0.5	·	-4	·
CC(C)c1ccc(CC(NC(=O)c2ccccc2)C(=O)NCC(=O)O)cc1 (stereo not given)	3	-0.1	·	-5	3%
CCN(CC(=O)Nc1ccc(NC(C)=O)cc1)C(=O)c1cccc(S(=O)(=O)N2CCCC2)c1	·	-0.2	·	3	·
O=[N+]([O-])c1cn(-c2nc(-c3ccco3)cc(C(F)(F)F)n2)cn1	4	0.6	9	99	-1%
O=C(COC(=O)Cc1c[nH]c2ccccc12)NC1CCS(=O)(=O)C1 (stereo not given)	·	-2.1	·	2	·
C=CCNC1=C(Cl)C(=O)N(c2cccc(Cl)c2Cl)C1=O	5	28	-40	·	-9%
Cc1nn(Cc2ccccc2)c(Cl)c1/C=C/C(=O)OC(C(=O)NC(N)=O)C(C)C (stereo not given)	-8	1.2	·	-6	4%
O=C(CCN1CCCCC1)Nc1cccc(Cl)c1	5	2.1	-27	-6	-1%
CCCOc1ccc(/C(O)=C2/C(=O)C(=O)N(CCCOC)C2c2ccncc2)cc1 (stereo not given)	1	-2.2	2	49	0%
CC(=O)Nc1cccc(NC(=O)CSc2nc3ccccc3o2)c1	4	-0.2	-15	-4	-6%
Cc1cc(C)nc(N2C(=O)CC(Cc3ccccc3)C2=O)n1 (stereo not given)	0	-1.2	-13	2	-6%
COCCCNC(=O)CN(Cc1ccccc1)S(=O)(=O)c1ccccc1	·	0.5	·	-11	·
Cc1ccc(C(=O)Nc2ccc(S(=O)(=O)NCc3ccco3)cc2)cc1	-2	-0.3	-8	2	-3%
O=Cc1cn(CCC(=O)O)nc1-c1cccc2ccccc12	5	-6.7	·	3	0%
Cc1[nH]nc2c1C(c1cnn(C)c1)C(C#N)=C(N)O2 (stereo not given)	-4	76*	·	-3	2%
COC(=O)c1cc(C#N)c(Oc2ccc(OC)cc2)nc1C	7	1.5	-53	2	11%
O=[N+]([O-])c1cccc(-n2nnnc2CN2CCCCCC2)c1	2	-1.3	-22	-1	-11%
Oc1ccc(N=Cc2sc3ccccc3c2Cl)cc1	2	34*	-9	-9	4%
CCN(CC)C(=O)c1cc(-c2ccc3c(c2)OCO3)on1	·	-0.3	·	2	·
CCN(CC)CCOc1nnc(-c2ccc(OC)cc2)c2ccccc12	·	-2.5	·	0	·
Clc1ccsc1-c1csc(-c2cccnc2)n1	-5	1.3	-14	54	9%
CC(C)CN1CCC(=O)N(CCOc2ccccc2)CC1	·	0.0	·	-15	·
CCN(C(=O)COC(=O)CNC(=O)c1sc2ccccc2c1Cl)C1CCCCC1	·	7.8	·	-4	·
CC1CC(C)CN(c2oc(-c3ccco3)nc2C#N)C1 (stereo not given)	1	-3.1	-40	0	·
CCCCn1c(=N)n(CCOc2ccc(C)cc2)c2ccccc21	-38	-1.5	-7	7	12%
CCCc1cc(=O)[nH]c(SCC(=O)c2cc(C)n(CCC)c2C)n1	-1	·	-14	-13	2%
COc1ccc(NC(=O)c2ccc3ccccc3n2)cc1S(=O)(=O)Nc1ccccc1Cl	-4	0.7	0	0	6%
COCCNC(=O)C(=O)Nc1cccc(Br)c1	-2	-1.8	-28	-7	-10%
CC1=CC(C)C(COC(=O)CN2CCCCC2)C(C)C1 (stereo not given)	·	2.0	·	-9	3%
CN1CCc2nc3sc(C(=O)NCc4ccccc4)c(N)c3cc2C1	-22	4.0	·	14	5%
CC(=O)c1ccc(N2CCN(C(=O)c3nn(C)c4c3CS(=O)(=O)c3ccccc3-4)CC2)cc1	·	-2.5	·	0	·
O=C(CSc1nnnn1C1CCCCC1)N1CCc2ccccc21	-6	-0.6	5	-1	-9%
O=C(CNC(=O)c1ccccc1F)OCC(=O)c1ccc(Cl)s1	·	1.2	·	-1	·
CCn1c(-c2sc(-c3ccccc3)nc2C)n[nH]c1=S	0	-8.9	·	-6	5%
CCn1c(SCC(=O)Nc2ccccc2)nnc1C1CCCCC1	0	4.8	50	-7	-7%
O=C1C(C=NCc2ccco2)=C(O)c2ccccc21	-5	2.1	-27	-5	0%	Arbovirus inh repeat=-1
O=C(Nc1cccc(NC(=O)c2ccccc2[N+](=O)[O-])n1)c1ccccc1[N+](=O)[O-]	5	-1.7	-37	0	-6%
COc1cccc(CNc2ncn[nH]2)c1OCc1ccc(F)cc1	-1	0.4	·	-13	-17%
Cc1ccc(OCC(=O)NC(=S)Nc2cccc(NC(=O)c3ccccc3)c2)cc1	-10	2.6	-20	1	2%
CCc1nnc(NC(=O)c2ccc3c(c2)C(=O)N(CC(C)C)C3=O)s1	2	-0.7	-8	·	-16%
CC(C)N(C(=S)Nc1cc(S(=O)(=O)N2CCOCC2)ccc1Cl)c1ccccc1	-4	-1.4	0	0	-7%
COC(=O)c1cnn(-c2nc(-c3ccccc3)cs2)c1N	·	-0.1	·	-1	·
COc1ccccc1C1(O)CCN(CC(=O)Nc2c(C)nn(C)c2C)CC1	12	0.3	-18	4	2%
Cc1cc[n+]2cc(-c3cccc([N+](=O)[O-])c3)c(-c3cccc([N+](=O)[O-])c3)cc2c1	4	8.7	-16	-1	4%
Cc1cc(C)c(C(=O)COC(=O)c2cccc(S(=O)(=O)NCc3ccccc3)c2)cc1C	-1	0.0	-24	0	6%
CCOc1ccc(S(=O)(=O)Nc2ccc3c(c2)OCO3)cc1	·	-1.0	·	3	·
O=C(Nc1nnc(-c2ccco2)s1)C1CCN(S(=O)(=O)c2ccc(Cl)cc2)CC1	-9	-1.9	-60	8	2%
CCS(=O)(=O)N1CCC(C(=O)Oc2ccc(Cl)cc2)CC1	·	2.4	·	5	·
Cn1c(O)c(N=NC(=O)CNC(=O)c2ccccc2)c2cc(Br)ccc21	·	-1.2	·	3	·
CC(C)(C)CC(=O)Nc1nnc(CCc2ccccc2)s1	·	-2.6	·	1	·
Cn1cccc1C1NC(=O)c2c(sc3c2CCC(C(C)(C)C)C3)N1 (stereo not given)	10	-3.9	-92	-2	1%
CCc1nc(OCc2ccccc2)c2sc3nc4c(cc3c2n1)COC(C)(C)C4	0	-3.3	-12	7	-3%
CC1=C(C(=O)Nc2ccccc2C)C(c2ccc(C)o2)N2C(=O)CSC2=N1 (stereo not given)	3	2.2	-1	-4	-1%
N#CC(C(=O)NCCc1ccccc1)c1nc2ccccc2nc1N1CCCCC1 (stereo not given)	-1	-42	-39	-1	1%
O=C(NCC1c2ccccc2CCN1C(=O)CN1CCOCC1)C1CCCCC1 (stereo not given)	15	-0.1	-44	-10	3%
Cc1ccc2cc(C#N)c(NCc3ccccc3)nc2c1	-3	-4.9	·	-2	·
O=C(NC1CCCCCCC1)c1ccc(F)cc1	·	0.1	·	-5	·
The list goes on.
SMILES	Arbovirus inh	RecA intein inh	YopH PTP inh	Mtb bLac sens	Mtb growth	others
Cc1ccccc1NC(=O)CSc1nc2ccccc2c2nc(CCn3cncc3C)nn12	-2	-0.8	-9	5	6%
Oc1[nH]c2ccc(Br)cc2c1N=Nc1nn[nH]n1	·	2.2	·	-6	10%
COc1cccc(-c2nn(-c3ccccc3)cc2CN(C)Cc2ccon2)c1	6	6.0	·	16	-4%
COC(=O)C1CCN(C(=O)NC(C)(C)C)CC1	5	0.0	-5	-17	-7%
CCCN(CCC)c1ccc(C(O)c2nnc(-c3ccccc3)o2)cc1 (stereo not given)	7	0.3	·	8	21%

A portion of the library. The share of hits here may be higher or lower than overall.
